Compound activity as filed in PubChem.
GALR2 ag: activates the human galanin receptor 2 | GALR2-expressing cells, agonist activation read-out | activation, %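 (tested at 5 µM)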 | actives 0.48% (n = 140,000) | O43603;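 active means above mean plus 3 SD of all compounds, about 5% in these data, not always enough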;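 further: 0% = vehicle buffer wells and 100% = reference agonist at full effect; tested in CHO reporter cells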
Target sequence (O43603 whole entry, looked up): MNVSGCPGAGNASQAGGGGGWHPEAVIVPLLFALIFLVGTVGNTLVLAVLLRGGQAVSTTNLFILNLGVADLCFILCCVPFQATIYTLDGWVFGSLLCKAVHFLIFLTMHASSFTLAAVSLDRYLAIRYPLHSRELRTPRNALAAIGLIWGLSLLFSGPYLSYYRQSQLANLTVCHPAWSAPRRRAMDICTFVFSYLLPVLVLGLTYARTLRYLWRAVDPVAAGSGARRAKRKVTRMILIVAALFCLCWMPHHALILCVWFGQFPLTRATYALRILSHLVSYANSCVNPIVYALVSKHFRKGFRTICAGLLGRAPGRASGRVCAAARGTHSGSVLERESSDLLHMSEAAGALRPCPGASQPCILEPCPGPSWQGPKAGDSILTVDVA
HSV replic up: HSV replication enhancement; HSV replication augmentation in cells, fold increase; maximum fold increase; actives 0.005% (n = 220,000); AID 1956;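 active means peak rise of 1.5-fold or more in the series; inconclusive means self-fluorescent or not available for retest; tested in PC3 cells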;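 further: first round at 10 µM; read as green reporter fluorescence; hits show the peak of a series up to 25 µM; 1 = signal of infected wells without compound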
PKD1 inh: blocks activity of human protein kinase D1. PKD1 kinase fluorescence polarization assay. AID 797. inhibition, %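 (about 10 µM by stock and volumes)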. actives 0.056% (n = 200,000). Q15139;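 active means inhibition of 50% or more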;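 further: controls were vehicle for no effect and a reference inhibitor for full effect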
Insulin prom inh: TRM-6 insulin promoter activity inhibition; TRM-6 cells (human fetal islet line), insulin promoter-eGFP reporter, imaging; reporter expression induced with tamoxifen; inhibition, % at 2 µM; AID 1273; actives 0.9% (n = 130,000);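 active means inhibition above the mean plus 3 SD, with well images judged a real hit on visual review, cut at about 60% in these data, passing the limit was not always enough; inconclusive means inhibition over the cutoff but images rejected on review; inactive means inhibition not above the cutoff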
RGS16-Gao HTS: RGS16-Galphao interaction regulator (human). O15492+P09471. bead-based flow cytometry RGS16-Galphao binding, fluorescence; actives lie on both sides. binding response (% of control), % at 10 µM. actives 0.38% (n = 220,000);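 active means below 25% or above 175%, edge rows of some plates excepted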;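 further: Galphao activated by GDP with aluminum fluoride before binding; 100% = wells without compound and 0% = beads without RGS; some results beyond the cut were filed as inactive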
Target sequence (O15492 whole entry, looked up): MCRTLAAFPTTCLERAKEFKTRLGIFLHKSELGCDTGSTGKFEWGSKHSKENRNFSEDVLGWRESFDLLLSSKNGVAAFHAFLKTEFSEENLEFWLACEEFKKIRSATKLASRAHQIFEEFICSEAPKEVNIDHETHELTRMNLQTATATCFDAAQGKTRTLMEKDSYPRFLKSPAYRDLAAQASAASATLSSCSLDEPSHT
Target sequence (P09471 whole entry, looked up): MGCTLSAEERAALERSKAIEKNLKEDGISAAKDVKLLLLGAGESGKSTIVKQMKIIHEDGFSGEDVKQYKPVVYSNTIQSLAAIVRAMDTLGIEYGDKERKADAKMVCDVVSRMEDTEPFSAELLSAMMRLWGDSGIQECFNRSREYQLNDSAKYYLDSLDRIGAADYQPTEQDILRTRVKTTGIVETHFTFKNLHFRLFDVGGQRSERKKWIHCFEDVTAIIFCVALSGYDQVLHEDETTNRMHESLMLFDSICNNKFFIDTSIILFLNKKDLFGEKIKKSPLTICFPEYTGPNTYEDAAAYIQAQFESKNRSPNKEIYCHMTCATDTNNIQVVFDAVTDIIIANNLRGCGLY
Insulin prom inh cell count: further read-out of Insulin prom inh, marked with its call; normalized cell count, %; measured here: cell count, toxicity; reference of the scale not given here;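 cells exposed to compound for 48 h; stained nuclei by imaging scaled within each plate; lower means fewer cells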
HSV replic up primary fold: recorded beside HSV replic up, whose call it bears; fold increase; compound at 10 µM; measured here: primary screen fold increase 10 uM; tested in PC3 cells;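 GFP signal in the first replicate; 1 = infected wells without compound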
Numbers without * were called inactive; i = inactive; ? = inconclusive; . = not tested or not shown. These rows are one share of the data; rates above refer to the full screens.

Below each compound: GALR2 ag	HSV replic up	HSV replic up primary fold	PKD1 inh	Insulin prom inh	Insulin prom inh cell count	RGS16-Gao HTS
- CC12CN3CC(c4ccccc4)(CN(C1)C31CCCCC1)C2=O
  -1.9	i	1.17	1.2	12.5	129.9	94.7
- FC(F)(F)/C(=N\P(=S)(N1CCOCC1)N1CCOCC1)N1CCOCC1
  -3.0	i	0.78	-6.4	9.7	128.5	91.5
- CCOc1c(Cl)cc(CNC(C)C(O)c2ccccc2)cc1OC (centres undefined)
  .	i	0.91	-4.9	.	.	104.4
- NCC1(CC(=O)O)CCCCC1
  0.1	.	.	-8.2	-31.8	116.7	104.7
- CCOC(=O)C1(Cc2ccc(Cl)cc2)CCN(C(C)CCn2cccn2)CC1 (centres undefined)
  .	i	0.83	-4.9	.	.	102.3
- CN(C(=O)Oc1cccc2cccnc12)c1ccccc1
  -1.6	i	0.89	-11.0	.	.	77.2
- O=c1c2ccccc2nc(Cc2ccccc2)n1-c1ccc(O)cc1
  .	i	0.99	-3.5	46.7	64.2	96.5
- O=C1Nc2ccccc2Sc2ccccc21
  .	i	0.96	1.8	.	.	101.7
- O=C1NC(=O)C(CCc2ccncc2)(CCc2ccncc2)C(=O)N1Cc1ccccc1
  .	i	1.03	-8.8	.	.	100.3
- CCCC1(CCC)C(=O)NC(=NCc2ccccc2)NC1=O
  -0.8	i	0.81	3.7	.	.	109.8
- O=C(CCn1c(=O)oc2ccccc21)N1CCC2(CC1)OCCO2
  -0.9	i	0.86	-7.8	.	.	105.6
- CCOC(=O)C(O)(c1ccc(N(C)C(=O)COc2ccccc2)cc1)C(F)(F)F (centres undefined)
  -0.5	i	1.3	3.7	-2.3	116.7	.
- O=C(Cc1ccccc1)NC(Oc1ccccc1Cl)C(Cl)(Cl)Cl (centres undefined)
  -0.3	i	0.86	-0.7	7.4	116.0	99.9
- COc1ccc(Cn2c(O)c(/C=N/NC(=O)c3ccncc3)c(=O)[nH]c2=O)cc1
  .	i	1.12	.	.	.	104.4
- CCOc1ccc(Cl)cc1CNCCc1ccc(F)cc1
  .	i	0.87	-0.4	.	.	112.0
- Cc1nn(Cc2ccccc2)c(Cl)c1C(=O)OCC(=O)Nc1cccc2ccccc12
  -0.9	i	0.94	9.7	-128.1	83.2	82.0
- OC(c1ccccc1)(c1ccc(Cl)cc1)C1CN2CCC1CC2 (centres undefined)
  .	i	0.68	.	.	.	105.6
- CC/C(CC(c1ccccc1)c1c(O)c2ccccc2oc1=O)=N\NC(N)=S (centres undefined)
  -1.6	i	1.04	-3.2	26.7	138.3	101.5
- CCC1(c2ccccc2)C(=O)N(C)C(=O)N(C)C1=O
  -0.2	i	0.97	4.2	5.4	137.0	100.3
- C[C@@H]1C[C@H]2OC(=O)C3(CO3)[C@H]2[C@H](O)[C@]2(C)C(=O)C3OC3[C@@H]12 (some centres undefined)
  .	i	0.75	.	.	.	107.0
- Cc1cccc(OP(=O)(NCc2ccccc2)Oc2cccc(C)c2)c1
  -0.3	i	0.94	6.7	-35.3	73.7	101.8
- O=C(NC1CC1)C1CSC(c2cccnc2)=N1 (centres undefined)
  -0.6	i	0.7	1.1	.	.	108.9
- O=C(C1CCC(=O)N1C1CCCC1)N1CCC2(CC1)OCCO2 (centres undefined)
  -1.7	i	0.82	-5.8	20.0	113.3	97.1
- CN(C)C(=O)Oc1cccc(OCc2n(C)c3ccccc3[n+]2C)c1
  -0.4	i	0.92	-6.0	-23.3	88.3	111.8
- CN1CCC(OC(=O)Cc2ccccc2)CC1
  .	i	0.98	-0.8	.	.	98.6
- O=C(Cc1ccccc1)Oc1ccccc1N1C(=O)CCC1=O
  -0.6	i	0.96	-8.3	6.2	153.5	94.0
- CC/C(=N\NC(=O)Nc1ccccc1)c1c(O)n(Cc2ccccc2)c(=O)[nH]c1=O
  .	i	0.91	.	.	.	102.2
- CCCOc1ccc(N2C(=O)CC(N3CC=C(c4ccccc4)CC3)C2=O)cc1 (centres undefined)
  .	i	0.93	0.9	15.0	120.4	98.6
- COc1ccc(-n2c(O)c(C=Nc3c(C)n(C)n(-c4ccccc4)c3=O)c(=O)[nH]c2=O)cc1
  -0.9	i	0.84	4.3	16.3	105.5	99.9
- CN1CCN(C(=O)Cc2nc3ccccc3[nH]2)CC1
  -2.5	.	.	-4.6	.	.	104.8
- CCn1c(O)c(C=Nc2ccc(S(N)(=O)=O)cc2)c(=O)[nH]c1=S
  -0.7	i	1.15	-14.1	-29.9	103.1	112.5
- COc1ccc(C(=O)C23CN4CN(CN(C4)C2)C3)cc1
  .	i	0.97	2.4	-18.2	96.8	113.0
- Cn1cc(C(=O)NP(=O)(N2CCOCC2)N2CCOCC2)c2ccccc21
  .	i	1.04	-2.1	.	.	101.2
- O=c1c2ccccc2nc(/C=C/c2ccc(F)cc2)n1-c1ccccn1
  .	i	0.95	.	.	.	94.8
- Cc1ccc(N2C(=O)/C(=C/c3ccc(CN(CCC#N)S(C)(=O)=O)o3)C(=O)NC2=S)cc1
  -1.8	i	1.14	-6.6	-27.0	132.4	107.5
- O=c1[nH]c(O)c(C=NCCc2ccccc2)c(=O)[nH]1
  .	i	0.91	.	.	.	96.4
- CN1CCN2c3ccc(N)cc3CC3(C(=O)NC(=O)NC3=O)C2C1 (centres undefined)
  .	i	0.82	.	.	.	100.7
- N#Cc1ccccc1Cn1cc(C(=O)c2ccccc2F)c2ccccc21
  -0.7	i	0.98	1.1	.	.	89.1
- C/C(=N\NC(=O)c1ccncc1)c1c(O)n(-c2ccccc2)c(=O)[nH]c1=O
  .	i	1.08	.	.	.	103.9
- CC(=O)Nc1cc(C(=O)N2CCC3(CC2)OCCO3)ccc1S(=O)(=O)c1ccc(Cl)cc1
  1.1	i	1	-2.0	-12.9	98.8	100.5
- CCCCN1CCC(O)(c2ccccc2)C(C(=O)c2ccccc2)C1 (centres undefined)
  -1.5	i	0.96	3.5	25.6	29.1	100.5
- O=C(c1cc(-c2cccnc2)nc2ccc(Cl)cc12)N1CCC2(CC1)OCCO2
  -1.0	i	1	-9.1	15.4	102.3	107.9
- CN1CCN(/N=C/c2c(O)n(Cc3ccc(F)cc3)c(=O)[nH]c2=O)CC1
  .	i	0.95	.	.	.	98.6
- CC(C)n1cc(C(=O)N(CC(=O)NC2CCCC2)Cc2ccccc2)cn1
  -2.4	i	1.1	1.4	-12.1	100.2	106.4
- c1ccc2oc(N3CCNCC3)nc2c1
  -2.2	i	1.02	12.5	.	.	92.2

Single values from the results shown.
HSV replic up primary fold with C/C(=N\NC(=O)c1ccncc1)c1c(O)n(-c2ccccc2)c(=O)[nH]c1=O reads 1.08
HSV replic up primary fold with CCn1c(O)c(C=Nc2ccc(S(N)(=O)=O)cc2)c(=O)[nH]c1=S reads 1.15

Gathered by group, the compounds so far containing two or more sulfur atoms
Below each compound: GALR2 ag	HSV replic up	HSV replic up primary fold	PKD1 inh	Insulin prom inh	Insulin prom inh cell count	RGS16-Gao HTS
- CCn1c(O)c(C=Nc2ccc(S(N)(=O)=O)cc2)c(=O)[nH]c1=S
  -0.7	i	1.15	-14.1	-29.9	103.1	112.5
- Cc1ccc(N2C(=O)/C(=C/c3ccc(CN(CCC#N)S(C)(=O)=O)o3)C(=O)NC2=S)cc1
  -1.8	i	1.14	-6.6	-27.0	132.4	107.5

Additional entries follow:
Below each compound: GALR2 ag	HSV replic up	HSV replic up primary fold	PKD1 inh	Insulin prom inh	Insulin prom inh cell count	RGS16-Gao HTS
- O=C(Cc1ccccc1)OCn1nnc2ccccc2c1=O
  -1.5	i	0.66	-13.4	16.3	132.9	49.6
- Cn1c(O)c(C(=NCCc2c[nH]c3ccccc23)c2ccccc2)c(=O)n(C)c1=O
  .	i	0.98	2.9	0.0	143.1	101.2
- CN1CCC(N(C)c2nc(-c3ccccc3)nc3ccccc23)CC1
  -1.7	i	0.73	-5.9	-25.8	140.8	107.2
- CCC(C)n1c(O)c(/C=N/Nc2ccccc2)c(=O)[nH]c1=S (centres undefined)
  -0.2	i	0.98	-5.5	.	.	102.7
- CC(C)c1ccc(N=Cc2c(O)n(C3CC3)c(=S)[nH]c2=O)cc1
  .	i	0.9	.	.	.	105.7
- CCOC(=O)c1c(/N=C/C2C(=O)NC(=S)NC2=O)sc2c1CCC2
  .	?	.	0.4	-71.4	70.7	118.4
- O=c1[nH]c(=O)n(Cc2ccc(F)cc2)c(O)c1C=NCCCn1ccnc1
  0.7	i	0.84	-1.0	0.0	96.1	98.9
- CC1(C)CC(CCNCc2ccc3c(c2)OCO3)(Cc2ccccc2)CCO1 (centres undefined)
  .	i	0.94	-4.5	.	.	100.2
- O=C(C1CC(=O)N(C2CCCCC2)C1)N1CCC2(CC1)OCCO2 (centres undefined)
  -1.5	.	.	13.5	-7.1	61.8	104.0
- CCCCP(=O)(O)c1ccccc1
  -0.5	i	0.99	-5.3	-9.7	84.5	101.1
- C=CCN1C(=O)NC(=O)/C(=C/c2cc3c4c(c2)CCCN4CCC3)C1=O
  -0.8	i	1.17	1.6	-13.9	83.4	78.2
- CCC(=NCc1cc(OC)cc(OC)c1)c1c(O)n(C)c(=O)n(C)c1=O
  -2.2	i	0.79	-4.3	60.0	107.6	105.1
- O=c1c2ccccc2nc(CN2CCCCCC2)n1-c1ccc(F)cc1
  -1.4	i	1.11	-11.6	33.3	98.2	106.2
- CCOC(=O)c1c(C)n(Cc2ccccc2)c2ccc(OCC(O)CN3C(=O)CNC3=O)cc12 (centres undefined)
  -1.1	i	0.94	-1.3	54.5	64.4	103.5
- COc1c(C)cc(C(=O)C2CCCN(C3CCOCC3)C2)cc1C (centres undefined)
  .	i	1.12	2.4	.	.	100.8

3 structures from above, sorted by formula weight, lowest first:
Below each compound: GALR2 ag	HSV replic up	HSV replic up primary fold	PKD1 inh	Insulin prom inh	Insulin prom inh cell count	RGS16-Gao HTS
- COc1ccc(C(=O)C23CN4CN(CN(C4)C2)C3)cc1
  .	i	0.97	2.4	-18.2	96.8	113.0
- O=C(Cc1ccccc1)OCn1nnc2ccccc2c1=O
  -1.5	i	0.66	-13.4	16.3	132.9	49.6
- O=C1NC(=O)C(CCc2ccncc2)(CCc2ccncc2)C(=O)N1Cc1ccccc1
  .	i	1.03	-8.8	.	.	100.3

Next structures follow:
Below each compound: GALR2 ag	HSV replic up	HSV replic up primary fold	PKD1 inh	Insulin prom inh	Insulin prom inh cell count	RGS16-Gao HTS
- C=CCn1c(O)c(C(CC)=NCCCO)c(=O)[nH]c1=O
  -1.6	i	0.96	-18.1	.	.	103.7
- C/C(CC(c1ccccc1)c1c(O)c2ccccc2oc1=O)=N\Nc1ccc([N+](=O)[O-])cc1[N+](=O)[O-] (centres undefined)
  .	i	0.97	.	.	.	104.1
- O=C1N=c2ccccc2=C/C1=C\c1c(O)[nH]c(=S)[nH]c1=O
  -1.6	i	1.01	0.0	38.2	35.7	86.5
- COc1ccc(-n2c(/C=C3\C(=O)Nc4ccccc43)nc3ccccc3c2=O)cc1
  .	i	0.86	-5.4	35.7	59.6	98.8
- CC(=O)N1CCC2(CC1)CC(=O)c1cc(OCC(=O)N3CCN(C)CC3)ccc1O2
  -1.7	i	0.97	10.4	.	.	93.5
- CC(=O)N1CCCSC1=Nc1ccccc1
  .	i	0.97	4.4	.	.	100.4
- CC(C)NC(C)C(=O)c1ccc2ccccc2c1 (centres undefined)
  .	i	0.97	-0.9	.	.	103.8
- CCOC(=O)c1c(/N=C/C2C(=O)NC(=S)NC2=O)sc(C)c1C
  .	i	1.28	-3.6	-55.0	195.9	100.0
- O=C(CN1CCCCC1)c1ccc2c(c1)OCO2
  .	i	1.1	.	.	.	99.6
- COc1ccc(-c2[nH]ncc2CNC(C)Cc2cccc(C)n2)cc1F (centres undefined)
  .	i	1.07	-2.2	.	.	99.6
- Nc1c(C(=O)NCCN2CCOCC2)c2nc3ccccc3nc2n1Cc1ccccc1
  .	i	0.87	.	.	.	101.0
- C[N+](C)(C)CCc1ccc(O)cc1
  .	.	.	-4.5	.	.	98.2
- OCC#CC[N+]1(CC#Cc2ccccc2)CCOCC1
  .	i	0.98	-2.3	25.9	81.1	100.2
